Mtb H37Rv = M. tuberculosis H37Rv growth inhibitors, H37Rv strain (AID 1626). 0.95% of 220,000 active. inhibition, % at 10 µM, or IC50 in µM where a hit was titrated. M. tuberculosis H37Rv growth inhibition; higher % means a stronger effect;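 active means confirmed in a dose series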;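 further: bacteria incubated seven days before Alamar blue readout; 0% = bacteria only wells and 100% = bacteria with antibiotic wells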
Arbovirus anti = blocks arbovirus infection. arbovirus infection cell-based antiviral screen. inhibition, % at 10 µM. 0.37% of 200,000 active. AID 1251;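 active means inhibition from about 30%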;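 further: bluetongue infection of BSR cells; cell survival read as ATP light after 72 h; 0% = infected wells without compound and 100% = uninfected wells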
Mtb betalactam = beta-lactam sensitization of Mtb H37Rv. M. tuberculosis H37Rv growth with meropenem, percent inhibition; hits of this screen are not shown here. inhibition, % at 25 µM. 0.27% of 330,000 active. AID 434955;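 active means about 74% or more and at least 40 points above the plate without the antibiotic, then above 30% in a dose series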;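 further: growth measured after seven days incubation then overnight dye step; 0% = bacteria only wells and 100% = bacteria with antibiotic; twin plates without the antibiotic show which effects depend on it; some results filed as inactive read as strong as hits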
YopH PTP inh = inhibitors of Yersinia enterocolitica YopH tyrosine phosphatase. AID 898. fluorescence Ex485/Em525. inhibition, %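 (about 10 µM by stock and volumes)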. 0.16% of 140,000 active;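 active means inhibition of 50% or more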;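 further: controls were vehicle for no effect and minimum signal wells for full effect; inactives centre near -20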
RecA intein inh = inhibitors of M. tuberculosis RecA intein splicing. P9WHJ3. cell-free RecA intein splicing, fluorescence. inhibition, %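 (about 9 µM by stock and volumes)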. 0.75% of 290,000 active. AID 2221; in the data active means inhibition above about 30%;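 further: 0% = vehicle wells and 100% = reference inhibitor control wells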
Target sequence (P9WHJ3 whole entry, looked up): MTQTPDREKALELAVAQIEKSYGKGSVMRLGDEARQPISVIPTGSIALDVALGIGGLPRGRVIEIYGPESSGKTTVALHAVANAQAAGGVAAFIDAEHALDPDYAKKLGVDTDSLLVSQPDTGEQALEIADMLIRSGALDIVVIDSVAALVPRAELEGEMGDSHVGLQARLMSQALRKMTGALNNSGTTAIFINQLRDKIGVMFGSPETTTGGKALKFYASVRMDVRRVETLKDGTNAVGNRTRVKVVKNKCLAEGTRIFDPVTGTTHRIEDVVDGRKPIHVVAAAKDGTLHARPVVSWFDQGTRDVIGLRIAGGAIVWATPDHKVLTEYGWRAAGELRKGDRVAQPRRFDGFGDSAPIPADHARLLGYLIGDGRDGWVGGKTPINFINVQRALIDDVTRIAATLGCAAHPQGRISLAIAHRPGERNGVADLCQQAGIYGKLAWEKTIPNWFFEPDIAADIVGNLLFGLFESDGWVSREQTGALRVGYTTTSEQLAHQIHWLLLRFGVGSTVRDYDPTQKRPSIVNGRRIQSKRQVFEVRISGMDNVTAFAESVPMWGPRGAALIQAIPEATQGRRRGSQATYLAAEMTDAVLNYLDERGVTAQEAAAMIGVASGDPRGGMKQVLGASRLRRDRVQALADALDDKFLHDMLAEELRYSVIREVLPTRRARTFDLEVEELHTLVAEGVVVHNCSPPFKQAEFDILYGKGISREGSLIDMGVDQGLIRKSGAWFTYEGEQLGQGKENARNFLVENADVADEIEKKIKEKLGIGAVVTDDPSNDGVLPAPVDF
Arbovirus anti repeat = further read-out of Arbovirus anti, marked with its call; inhibition, %; measured here: 10K subset replicate screen; many hits read low in the repeat;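 first of two repeat runs on a subset; 0% = infected and 100% = uninfected wells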
Starred values were filed as active, the others as inactive; nt = not tested or not shown; & = joins results of further samples. An excerpt; the hit share may differ from the screen's.

SMILES | Mtb H37Rv | Arbovirus anti | Mtb betalactam | YopH PTP inh | RecA intein inh | others
CCOC(=O)NC(=O)c1cn(CCN(C)C)c(=O)[nH]c1=O | 7% | 4 | 0 | -16 | 2.3
COc1cc(OC)cc(OCC(O)Cn2cnc3cc(C)c(C)cc32)c1 (configuration not stated) | 10% | 29 | 15 | -7 | 1.3 | Arbovirus anti repeat=19
CSc1cccc(NC(=O)CCCNC(=O)c2ccc(Cl)cc2)c1 | nt | nt | 43 | nt | -1.0
O=[N+]([O-])c1ccc(N/N=C\c2ccccc2OCc2ccccc2)cc1 | 78% | 1 | 55 | -23 | -1.5
CCCCc1nc(Cl)c(CO)n1Cc1ccc(-c2ccccc2-c2nn[nH]n2)cc1 | nt | nt | 2 | nt | -3.0
Cc1ccc(NS(=O)(=O)c2ccc3c(c2)CCC(=O)N3)cc1C | 1% | -5 | -3 | nt | -0.5
CCOc1ccc(S(=O)(=O)Nc2ccccc2SC)c2cccnc12 | 1% | 8 | -7 | -51 | -1.4
CCOc1ccc(N(C(=O)Cn2nnc3ccccc32)C(C(=O)NC(C)(C)CC)c2cccn2C)cc1 (configuration not stated) | 1% | 3 | -8 | -45 | -0.9
CC(C)NC(=O)C(=O)NCc1ccccn1 | -6% | nt | -3 | nt | -2.7
Cc1nn(Cc2ccccc2)c(Cl)c1/C=C1\NC(=S)NC1=O | -5% | -15 | -3 | nt | 7.3
Cc1cccc(OCC(=O)N/N=C/c2ccc3c(c2)OCO3)c1 | -3% | -32 | -4 | nt | 6.5
Cc1cccc(OC(=O)NCCOC(=O)N(O)c2ccc(Cl)cc2)c1 | -1% | 3 | 5 | -1 | 8.6
CCCCN1CC[C@H]2C=CC[C@@H](C(=O)Nc3ccc(OC)cc3)[C@H]2C1=O | 2% | nt | -8 | nt | 0.5
CCOC(=O)C(C(=O)Nc1ccccc1C)C1CCCCC1 (configuration not stated) | 1% | 8 | 6 | -25 | -1.9
CCOC(=O)C1CCCN(CCCc2ccccc2)C1 (configuration not stated) | 0%&-1% | 0&1 | 0&-8 | -13&-8 | 1.7&2.3
Cc1ccc(CNC(=O)CCCn2nc(C)c3c(C)n(-c4ccccc4)nc3c2=O)cc1 | nt | nt | 1 | nt | 0.1
Cc1ccc(Cn2c(C)cc3c(c2=O)C(c2cccs2)C(C#N)=C(N)O3)cc1 (configuration not stated) | -2% | -4 | 42 | -25 | 1.7
Cc1cccc(CSc2nnc(NC(=O)CSc3nnc(C)s3)s2)c1 | -6% | 31* | -14 | -6 | 1.2
CCOc1ccc(-c2noc(CCC(=O)O)n2)cc1 | -6% | 0 | 1 | -42 | -2.8 | Arbovirus anti repeat=5
N#C/C(=N\Nc1ccc(F)cc1)C(=O)C1CC1 | 2% | nt | -3 | nt | 2.5
CN1c2ccccc2C(=O)/C(=C\Nc2ncccn2)S1(=O)=O | -5% | nt | -2 | nt | 0.2
COc1ccc(C(=O)NNC(=O)CCn2nnc(-c3ccc(C)cc3)n2)cc1OC | -5% | 12 | -2 | nt | -1.8
CC1=CC(C)(C)N(S(=O)(=O)c2ccc(F)cc2)c2ccc(C)cc21 | -4% | -12 | -2 | 2 | 25
COCCn1ccc2c(OCC(=O)Nc3ccccc3OC)cccc2c1=O | nt | nt | 1 | nt | 0.1
CC(OC(=O)c1ccncc1)C(=O)Nc1cc(S(=O)(=O)N2CCCCC2)ccc1Cl (configuration not stated) | 4% | -1 | 6 | -4 | 1.1

Some of these compounds in order of SMILES length, lowest first.
SMILES | Mtb H37Rv | Arbovirus anti | Mtb betalactam | YopH PTP inh | RecA intein inh | others
CC(C)NC(=O)C(=O)NCc1ccccn1 | -6% | nt | -3 | nt | -2.7
CCOc1ccc(-c2noc(CCC(=O)O)n2)cc1 | -6% | 0 | 1 | -42 | -2.8 | Arbovirus anti repeat=5
N#C/C(=N\Nc1ccc(F)cc1)C(=O)C1CC1 | 2% | nt | -3 | nt | 2.5
Cc1cccc(OCC(=O)N/N=C/c2ccc3c(c2)OCO3)c1 | -3% | -32 | -4 | nt | 6.5
CCOC(=O)NC(=O)c1cn(CCN(C)C)c(=O)[nH]c1=O | 7% | 4 | 0 | -16 | 2.3
Cc1cccc(OC(=O)NCCOC(=O)N(O)c2ccc(Cl)cc2)c1 | -1% | 3 | 5 | -1 | 8.6
O=[N+]([O-])c1ccc(N/N=C\c2ccccc2OCc2ccccc2)cc1 | 78% | 1 | 55 | -23 | -1.5
CCCCc1nc(Cl)c(CO)n1Cc1ccc(-c2ccccc2-c2nn[nH]n2)cc1 | nt | nt | 2 | nt | -3.0
Cc1ccc(CNC(=O)CCCn2nc(C)c3c(C)n(-c4ccccc4)nc3c2=O)cc1 | nt | nt | 1 | nt | 0.1
CCCCN1CC[C@H]2C=CC[C@@H](C(=O)Nc3ccc(OC)cc3)[C@H]2C1=O | 2% | nt | -8 | nt | 0.5
CCOc1ccc(N(C(=O)Cn2nnc3ccccc32)C(C(=O)NC(C)(C)CC)c2cccn2C)cc1 (configuration not stated) | 1% | 3 | -8 | -45 | -0.9

The list goes on:
SMILES | Mtb H37Rv | Arbovirus anti | Mtb betalactam | YopH PTP inh | RecA intein inh | others
Cc1ccc(C)c(OCc2cc(C(=O)N3CCN(c4cnccn4)CC3)no2)c1 | nt | nt | 86 | nt | 3.1
COc1cccc(C(=O)NCC(=O)n2nc(C)cc2C)c1 | 0% | 2 | 3 | -28 | -1.1
CC(C)NC(=O)CN(Cc1ccc2c(c1)OCO2)C(=O)CCC(=O)Nc1ccccn1 | nt | nt | -9 | nt | -1.4
Cn1c(=S)n(/N=C/c2cccs2)c2ccccc21 | -1% | nt | -2 | nt | -2.9
C=CCNC(=O)CSCc1ccc(Br)cc1 | 5% | 0 | -7 | nt | -1.7
CCC1CCCCN1S(=O)(=O)c1ccc(NC(=O)c2ccncc2)cc1 (configuration not stated) | nt | nt | -4 | nt | 1.1
Cc1cc(C(=O)COC(=O)c2ccc(O)cc2)c(C)n1CC1COc2ccccc2O1 (configuration not stated) | 7% | -9 | 2 | -24 | 13
O=C(CN1C(=O)c2cccc3cccc1c23)NC1CCCCC1 | nt | nt | -1 | nt | -23
Cc1csc(NC(=O)C2CCN(S(=O)(=O)c3ccccc3F)CC2)n1 | 3% | -11 | 0 | nt | 1.6
CCCN(CCC)CCCNC(=O)C1CCN(S(=O)(=O)c2cccc3nsnc23)CC1 | nt | nt | -1 | nt | 3.9
CC(C)(CNC(=O)c1ccccc1NS(C)(=O)=O)N1CCCCC1 | nt | nt | -2 | nt | -2.0
C/C(=N\N(c1ccccc1)c1ccccc1)c1ccc(O)cc1 | nt | nt | 2 | nt | 21
Cc1ccc2nc(/C=C/c3cccc(F)c3)ccc2c1 | 4% | -4 | 3 | -19 | 5.7
CCCc1nnc(NC(=O)CCC(=O)NCc2ccccc2Cl)s1 | nt | nt | 3 | nt | -0.2
CC1C(c2cccs2)=[N+]([O-])C(C)(C(=O)c2cccs2)N1O (configuration not stated) | 0% | 9 | -3 | -6 | -1.0
O=C(Nc1ccc(Br)cn1)c1ccc2nccnc2c1 | 3% | nt | -10 | -16 | -0.9
COCCNC(=S)N(CCO)Cc1cc2cc3c(cc2[nH]c1=O)OCCO3 | nt | nt | -2 | nt | -7.0
Clc1nc(-c2ccccn2)nc2scc(-c3ccccc3)c12 | 9.2µM* | 1 | 91 | -11 | 1.3
Fc1cccc(CN2CCSCC2)c1 | nt | nt | -4 | nt | -3.2
CCOC(=O)c1c(NC(=O)COC(=O)CNC(=O)c2ccc(Cl)cc2Cl)sc(C(=O)N(C)C)c1C | nt | nt | 2 | nt | -0.5
COc1ccc(-c2cc(-c3ccc(N)cc3)nc(N)c2C#N)cc1OC | -6% | -18 | 6 | nt | -75
O=C(NCCc1ccccc1F)C1CCC(=O)N(CCCN2CCCC2=O)C1 (configuration not stated) | nt | nt | -3 | nt | -0.2
CCN(CC)c1ccc2ccc(=O)oc2c1 | -8% | 4 | 3 | nt | -348
O=[N+]([O-])c1cc([N+](=O)[O-])c2cccnc2c1O | -4% | nt | 6 | nt | 4.4
Cc1ccc(C(=O)NCCSC(C)(C)C)cc1 | 3% | 3 | 39 | 13 | -1.7
The results go on:
SMILES | Mtb H37Rv | Arbovirus anti | Mtb betalactam | YopH PTP inh | RecA intein inh | others
COc1ccc2c(c1)c(=O)c(C(=O)c1ccc(F)cc1)cn2CC(=O)Nc1ccc(F)cc1 | nt | -5 | 3 | -27 | -7.4
C#CC(C)(C)NC(=O)c1cnc(-c2ccccc2)nc1-c1ccccc1 | nt | nt | 3 | nt | -0.2
Cc1cc(S(=O)(=O)N2CCCC2)ccc1OCC(=O)NCc1ccco1 | 1% | -1 | -7 | -45 | -1.0
O=C(NC1CCCCC1)N1CCN(c2ncccn2)CC1 | -5% | 1 | -4 | 1 | 0.3
COCc1cc(C)nc(SCC(=O)Nc2cc3c(cc2C#N)OCO3)c1C#N | -5% | -6 | 8 | -42 | -0.7
Cc1ccc(C(=O)Nc2cccc(S(=O)(=O)N3CCOCC3)c2)cc1[N+](=O)[O-] | -6% | nt | 0 | nt | nt
CCCN(CCC)S(=O)(=O)c1ccc(NC(=O)COc2ccccc2)cc1 | -7% | -3 | 2 | -10 | 13
COc1ccc(OC)c(CNC(=O)c2nn(C)c3c2CS(=O)(=O)c2ccccc2-3)c1 | nt | nt | -1 | nt | 0.1
COc1ccc(CCC(=O)NCc2cn3ccc(C)cc3n2)cc1 | -8% | 9 | 6 | nt | -1.6
O=S(=O)(NC1CCc2ccccc21)c1ccc(S(=O)(=O)N2CCCC2)cc1 (configuration not stated) | 5% | 0 | -10 | -27 | 0.2
Cc1nnc(NC(=O)c2c(-c3ccccc3)noc2C)s1 | -7% | 2 | 11 | -27 | 0.3
Cn1c(SCC(=O)Nc2ccc(NC(=O)c3cccs3)cc2)nnc1-c1ccncc1 | -1% | 6 | -1 | -22 | -1.5
Cc1nc(-c2ccc(C(=O)NCCO)cc2)cs1 | 2% | 4 | 4 | nt | -2.9
CCCn1c(=O)c2ccccc2n2c(SCC(N)=O)nnc12 | nt | nt | 2 | nt | 1.0
COc1ccc(OC)c(/C=N/n2c(-c3n[nH]c4c3CCC4)n[nH]c2=S)c1 | -6% | nt | -6 | nt | -1.2
CCOc1ccc(C(=S)N2CCOCC2)cc1 | 4% | -6 | -12 | -6 | -2.6
O=c1cc(O)n(-c2ccc(F)cc2)c(=S)[nH]1 | -71% | 7 | -1 | -37 | -4.8
O=C(CSc1nnc2ccccn12)NNC(=O)c1ccccc1 | 1% | 0 | 2 | nt | -0.3
CC1CCc2nn(CC(=O)NC3CCCC3)cc2C1 (configuration not stated) | -6% | -6 | 1 | -23 | 0.8 | Arbovirus anti repeat=-2
O=C(O)c1ccc(N/N=C2/CCSc3ccc(F)cc32)cc1 | nt | nt | 17 | nt | -4.4
CCOc1ccc(-n2nnnc2SCC(=O)Nc2ccc(NC(C)=O)cc2)cc1 | nt | nt | -1 | nt | 1.0
CCOC(=O)C1Nc2ccc(OC(F)(F)F)cc2C2C=CCC12 (configuration not stated) | -5% | nt | 6 | nt | 10
Cn1c(=O)c(NC2CCCCC2)c2c3c(cccc31)C(=O)c1ccccc1-2 | 7% | -8 | nt | nt | nt
COC(=O)c1ccccc1NS(=O)(=O)c1cn(C)c(=O)n(C)c1=O | 7% | 10 | 2 | -51 | -2.2 | Arbovirus anti repeat=1
O=C(CSc1nnc(CNC(=O)c2cccs2)o1)Nc1ccc2c(c1)OCO2 | -7% | 2 | 34 | -15 | -1.0
Carrying on:
SMILES | Mtb H37Rv | Arbovirus anti | Mtb betalactam | YopH PTP inh | RecA intein inh | others
CCCCN(CC)CCCNC(=S)Nc1ccc2nc(N3CCN(C)CC3)cc(C)c2c1 | -1% | -5 | -12 | nt | 0.9
Cc1ccc(S(=O)(=O)CCC(=O)NC2CCCC2)cc1 | nt | nt | -6 | nt | 0.0
O=C(CN1CCCCCC1)N1c2ccccc2C=Cc2ccccc21 | 0% | -11 | -5 | -1 | -3.3
O=c1[nH]c(CSc2ncc(C(F)(F)F)cc2Cl)nc2cc(C(F)(F)F)ccc12 | -2% | nt | 3 | nt | -2.2
O=C(Nc1ccccc1)Nc1snnc1C(=O)Nc1cccc(O)c1 | 11% | 48* | nt | nt | -10.0
COc1cc(OC)c(/C=N/n2c(C)nnc2C)c(OC)c1 | -4% | 1 | -7 | -31 | -1.5
Cc1ccc(C)c(CSCC(=O)NCc2cccs2)c1 | -7% | 1 | -5 | nt | -2.0
Nc1nc(CSc2nnc(-c3cccc(F)c3)n2-c2ccccc2)nc(N2CCOCC2)n1 | -5% | -8 | 12 | -29 | -1.9
COCCN(CCOC)C(=O)c1ccc(CSc2nc3ccccc3s2)cc1 | nt | nt | -11 | nt | 4.0
Cc1ccc(NC(=O)CN(C)C(=O)c2cc3ccccc3o2)cc1 | 9% | 5 | 0 | nt | -5.3
O=C(c1cc(-c2ccccc2O)on1)N1CCOCC1 | nt | nt | 10 | nt | -1.9
COC(=O)C1(C(C[N+](=O)[O-])c2ccco2)C(=O)NCC1c1ccccc1 (configuration not stated) | 0% | nt | 18 | nt | 0.5

Compound activity from PubChem BioAssay.
